Compound activity (PubChem BioAssay)
Ba CapD inh: Bacillus anthracis CapD inhibitors, primary screen, biochemical, fluorescence intensity. purified CapD enzyme, fluorescence intensity read-out; hits give low values; some hits fall short of the stated cut. AID 492967, 2010. hit rate 0.23% among 140,000. CapD gamma-glutamyltranspeptidase (Bacillus anthracis Ames Ancestor). z-score (no concentration beside the values);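 active = z-score under -4 in either of two replicates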;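 note: stock transfer was 100 nL into about 40 µL; score is relative to mean and spread of the plate; one replicate is shown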
AID504770: growth inhibition of E. coli YBA685, primary screen, V. cholerae RctB inhibitors | E. coli YBA685 rctB-dependent plasmid, OD600 growth, 3 h; hits give low values | z-score (concentration not given with the values) | hit rate 0.27% among 130,000;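 active = z-score under -2 on both plates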;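 note: wells of about 30 µL received 100 nL stock; score is relative to mean and SD of the test wells; the first replicate is given; strong numbers were not always called active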
* marks the source's active call; other numbers are inactive results; i = inactive; / = not tested or not shown.

Values run as follows: Ba CapD inh	AID504770
O=C(CSc1nc2ccccc2c(=O)[nH]1)c1ccccc1
    -0.46	2.3
COc1ccc2c(c1OC)C(=O)OC2OC (configuration not stated)
    0.4	/
CCSCCOC(=O)C1=C(C)NC2=C(C(=O)CC(c3cccs3)C2)C1c1ccc(O)c(OC)c1 (configuration not stated)
    4.7	/
CC(=O)Nc1ccc(S(=O)(=O)NCCC(=O)Nc2nc(C)cs2)cc1
    /	-0.05
Cc1noc(C)c1C(=O)N(C)Cc1ccccc1
    0.45	-0.15
Cc1cc2nc(C)n(CCCNC(=O)NC34CC5CC(CC(C5)C3)C4)c2cc1C
    0.32	-0.25
COCCNC(=O)c1cn(Cc2cccc3ccccc23)nn1
    /	-0.05
O=C(Nc1ccc(C(=O)c2ccccc2)cc1)c1ccccc1
    -1.4	1.9
NC(=O)c1cccn1Cc1ccccc1Cl
    -0.16	0
CCOC(=O)c1c(C)[nH]c(C)c1S(=O)(=O)N1CCCCC1
    -0.2	1.2
O=C(CSc1ccc(F)cc1)Nc1ccc(C2SCCS2)cc1
    -0.17	-0.45
CSc1ccc(C(=O)C(CC(=O)c2ccc(Cl)cc2)c2cccs2)cc1 (configuration not stated)
    0.72	/
NC(=O)CN1C(=O)CC(c2ccccc2)Sc2ccccc21 (configuration not stated)
    -0.065	0.15
CC(C)[C@H](NS(=O)(=O)c1cccc(C(F)(F)F)c1)C(=O)OCc1nnc(-c2ccccc2)o1
    /	-0.3
Cc1ccc(C(=O)n2cc(CCN3CCS(=O)(=O)CC3)c3ccccc32)cc1
    -0.9	/
Cc1cc(C)n(-c2n[nH]c(=S)c3ccccc23)n1
    /	0.5
O=C1c2[nH]nc(-c3ccccc3O)c2C(c2ccccc2)N1CCc1ccccc1 (configuration not stated)
    -0.48	-0.6
CSC(=NS(=O)(=O)c1ccc(C)cc1)SC
    0.045	-0.75
CCn1c2ccccc2c2cc(CN3CCN(C(=O)OCc4cc(OC)c(OC)cc4[N+](=O)[O-])CC3)ccc21
    1.5	/
Cc1cccc(CSCc2ccc(C(=O)NC(C)C)o2)c1
    -0.41	-0.75
COc1cc(OC)nc(-c2c(F)cccc2F)n1
    -0.4	/
CN1CCN(C(=O)c2cccn(Cc3c(Cl)cccc3Cl)c2=O)CC1
    0.05	/
CC(C(O)c1ccccc1)N(C)C(=O)c1ccccc1 (configuration not stated)
    0.14	0.75
FC(F)(F)c1cnc(NN=C2CCSCC2)c(Cl)c1
    -0.22	-1.6
N=C1C(c2nc3ccccc3s2)=C(O)CN1N1C(=O)c2ccccc2C1=O
    /	-0.05
COC(=O)/C=C\C(=O)Nc1ccc(NC(C)=O)cc1
    -0.38	-2
CC(Sc1ccc(S(=O)(=O)N2CCN(C)CC2)cn1)C(=O)NC1(C#N)CCCCC1 (configuration not stated)
    /	1.5
CC(=O)N1CCN(S(=O)(=O)c2ccc(C)cc2)C1C (configuration not stated)
    /	-0.05
COC(=O)/C=C1\Nc2ccccc2NC1=O
    5.4	3.2
COC(=O)c1sccc1-n1c(C)ccc1C
    -0.66	/
COc1ccc(C2=NN(C(=O)CCCC(=O)O)C(c3ccccc3Cl)C2)cc1OC (configuration not stated)
    14	/
CCOc1ccc(CCNC(=O)CCc2c(C)nc3nc[nH]n3c2=O)cc1OCC
    -0.17	0.7
O=C(O)c1cccc(N2CCCC2)c1
    76	0
O=C(Cc1c(C(=O)O)[nH]c2ccccc12)NCCN1CCN(c2cccc(Cl)c2)CC1
    -0.39	-0.5
O=C(Cc1ccccc1)N1CCc2ccccc21
    -0.82	1.5
CC(C)=CCC/C(C)=C\COC(=O)N1CCC(C(O)(c2ccccc2)c2ccccc2)CC1
    0.36	/
CC1C/C(=N\O)C(C(C)C)C/C1=N/O (configuration not stated)
    -0.29	-0.35
N#Cc1c(-c2cccs2)[nH]c(=S)[nH]c1=O
    -1.2	/
CC(C)=CC(=O)Nc1nnc(-c2ccccc2)s1
    /	-0.4
COc1ccc(-c2nc3ccccc3c(=O)n2NC(=O)c2ccc(OC)c([N+](=O)[O-])c2)cc1OC
    -1.3	/
N#Cc1ccc(COC(=O)N2CCN(C(=O)OCc3ccccc3)CC2)cc1
    0.11	/
O=S(=O)(O)c1ccc(Nc2ncnc3ccccc23)cc1
    -0.47	/
O=C(COc1ccc2c(c1)OCO2)NC1CCCc2ccccc21 (configuration not stated)
    /	0.3
NC1=NC(c2ccncc2)n2c(nc3ccccc32)N1 (configuration not stated)
    -0.59	0.75
CC(C)/C=C(/C(=O)c1ccc(Cl)cc1Cl)n1cncn1
    16	-0.2
CCOC(=O)C1CCN(C(=O)c2ccc(NS(=O)(=O)c3ccc(OCC)cc3)cc2)CC1
    /	0.25
O=c1[nH]c(SCCO)nc2c1cnn2-c1ccc(F)cc1
    -0.26	-0.5
COc1cc(OC)c(OC)cc1/C=C1\N=C(c2cc(Br)ccc2OC)OC1=O
    0.16	/
CCCC(C(N)=O)C1=NC2(CCCCC2)Cc2ccccc21 (configuration not stated)
    0.67	-0.3
CCN(CC)c1ccc2cc(C#N)c(=O)oc2c1
    i	-0.2
COc1cccc(C(=O)NCc2ccccc2OC)c1
    /	0
COc1nc(Nc2ccccc2)nc(NC(C)C)n1
    /	-0.35
CC1(C)OC(C(N)=O)C(C(N)=O)O1 (configuration not stated)
    0.07	0.55
Cc1ccc(S(=O)(=O)Nc2c[nH]c(=O)[nH]c2=O)cc1
    0.54	-0.45
COCc1cc(C)nc2sc3c(=O)n(-c4cccc5ccccc45)nnc3c12
    0.055	/
Cc1ccc2c(c1)C1CN(C)CCC1N2C(=O)c1ccco1 (configuration not stated)
    /	1.2
CCn1nc(C(=O)Nc2sccc2C(N)=O)c2ccccc2c1=O
    /	-0.05
O=[N+]([O-])c1c(Cl)cc(O)c2c1C1C=CCC1C(c1ccccc1)N2 (configuration not stated)
    -1.5	/
Cc1ccccc1C(=O)c1c[nH]c(C(=O)N2CCN(c3ccccc3F)CC2)c1
    -0.26	/
CN1CCN(C(=O)c2nn3c(C(F)(F)F)cc(-c4ccco4)nc3c2Br)CC1
    0.12	/

An excerpt of these results, comma-delimited.
compound,Ba CapD inh,AID504770
O=S(=O)(O)c1ccc(Nc2ncnc3ccccc23)cc1,-0.47,/
O=C(COc1ccc2c(c1)OCO2)NC1CCCc2ccccc21 (configuration not stated),/,0.3
NC1=NC(c2ccncc2)n2c(nc3ccccc32)N1 (configuration not stated),-0.59,0.75
CC(C)/C=C(/C(=O)c1ccc(Cl)cc1Cl)n1cncn1,16,-0.2
CCOC(=O)C1CCN(C(=O)c2ccc(NS(=O)(=O)c3ccc(OCC)cc3)cc2)CC1,/,0.25
O=c1[nH]c(SCCO)nc2c1cnn2-c1ccc(F)cc1,-0.26,-0.5
COc1cc(OC)c(OC)cc1/C=C1\N=C(c2cc(Br)ccc2OC)OC1=O,0.16,/

Next part:
Values run as follows: Ba CapD inh	AID504770
CC1C(c2ccccc2)=[N+]([O-])C2(CCCC2)N1O (configuration not stated)
    /	-0.7
CCSc1nnc(-c2ccc(N(CC)CC)cc2)o1
    /	-1.2
CCOC(=O)c1cc(-c2ccccc2)n(CC(=O)N2CCCC2)c1C
    /	0.2
CCC(C)(C(=O)NC1CCCCC1)N(C(C)=O)c1ccccc1 (configuration not stated)
    -0.15	0.65
CCOP(=O)(OCC)c1nc(-c2ccccc2Cl)oc1N1CCCCC1
    62	/
COc1cc(OC)cc(C(=O)OCCN2C(=O)c3cccc4c(N5CCOCC5)ccc(c34)C2=O)c1
    -0.03	/
C=CCn1c(C)cc(C(=O)COC(=O)Cc2sc(N)nc2-c2ccc(C)cc2)c1C
    /	0.25
CCOC(=O)c1sc(Nc2nc3ccc(OC)cc3s2)cc1C
    -1.6	0.15
CC1CCCCC1NC(=O)c1cc2cccnc2n(Cc2ccccc2)c1=O (configuration not stated)
    /	-0.9
COc1ccc(Nc2nnc(-c3ccc(Cl)cc3)c3ccccc23)cc1C(N)=O
    0.055	/
COc1nc2c(c(-c3ccco3)c1C#N)Cc1ccccc1-2
    37	0.45
CCOc1ccc(S(=O)(=O)N2CCN(Cc3ccc4c(c3)OCO4)CC2)c2cccnc12
    1.1	/
CCN1CCN(C(=O)C2CCCCC2C(=O)O)CC1 (configuration not stated)
    0.06	-0.8
O=C(NCCc1ccc(Cl)cc1)c1ccco1
    /	-1.2
N=c1c2c(-c3ccccc3)c(-c3ccccc3)n(Cc3ccco3)c2ncn1CCO
    /	1.4
Cc1ccc(N2NC3(CCCCCC3)NC2=S)cc1
    -0.45	/
O=C(O)c1cccc(N2C(=O)CS(=O)(=O)C2c2ccccc2Br)c1 (configuration not stated)
    -0.33	/
COc1cccc(/C=C2/C(=O)NN(c3ccccc3)C2=O)c1
    -0.12	0
O=C(Cc1ncn[nH]1)NCCc1ccccc1
    -5.8*	-0.7
CC(C)CNc1cc(N2CCCC2)c2noc3c2c1C(=O)c1ccccc1-3
    -0.035	0.75
COC(=O)c1ccc(Oc2coc3cc(OC)ccc3c2=O)cc1
    0.79	-1.1
Cc1ccc(CSCC(=O)Nc2ccc3c(c2)OCO3)cc1
    0.47	0.25
Cc1ccc(NC(=O)c2sc3ncn(CC(=O)N4CC(C)CC(C)C4)c(=O)c3c2C)c(Br)c1 (configuration not stated)
    -0.92	/
OC(CN1CCOCC1)C(F)(F)F (configuration not stated)
    -0.55	-0.65
N#CCc1ccc(NS(=O)(=O)c2ccc(N3CCCC3=O)cc2)cc1
    0.2	-0.2
C=CCNC(=O)c1sc2cc(Cl)ccc2c1Cl
    0.02	-0.55
Cc1cccc(Oc2c(C(F)(F)F)oc3c(CN4CC(C)OC(C)C4)c(O)ccc3c2=O)c1 (configuration not stated)
    -0.11	/
CCOc1cc(/C=C(/C#N)c2cccc(Br)c2)ccc1OCc1ccc(C(=O)O)o1
    0.93	-1.1
CCC1SC(CC)C(=O)N(CC(=O)Nc2cccc(C)c2)C1=O (configuration not stated)
    /	-0.6
CC(N)c1ccco1 (configuration not stated)
    /	1
CC(C)C(NC(=O)C12CC3CC(CC(C3)C1)C2)C(=O)NC1=NCCS1 (configuration not stated)
    /	1.2
CCOC(=O)C1=C(C)N=c2s/c(=C\c3ccc(OC(C)=O)cc3OC(C)=O)c(=O)n2C1c1cccc([N+](=O)[O-])c1 (configuration not stated)
    -0.41	/
Cc1nc2ccccc2n1CC(=O)NC(C)C1CC2CCC1C2 (configuration not stated)
    /	-1.6
NC(=S)N/N=C/c1ccc(Cl)c(Cl)c1
    -1.8	/
CCC(C)NC(=O)CCc1nc2ccccc2n1-c1ccccc1 (configuration not stated)
    /	0.3
COc1ccc2c(c1)c(=O)c1ccccc1n2CC(=O)Nc1ccc(Cl)cc1
    0.25	/
N#Cc1c(-c2ccccc2)c2c([nH]c1=O)-c1ccccc1CC2
    1.4	-0.9
FC(F)(F)c1ccc(-c2nc(-c3cccnc3)ncc2-c2cnccn2)cc1
    -0.14	/
O=c1nc2s/c(=C\c3cccs3)c(=O)n2nc1Cc1ccccc1
    11	-0.55
O=c1oc(C(c2ccccc2)C2CCCC2)nc2cccc(F)c12 (configuration not stated)
    0.17	/
Clc1ccc(Oc2ccnc3cc(Cl)ccc23)cc1
    -0.27	/
NC(=O)COc1ccc(/C=N/NC(=O)c2ccc(CN3CCOCC3)cc2)cc1
    /	-0.05
O=C1CC(N2c3cccc4cccc(c34)S2(=O)=O)C2COC1O2 (configuration not stated)
    -0.09	-1.6
N#Cc1c(F)cccc1C(C#N)c1cccs1 (configuration not stated)
    -0.26	0.4
OC(CNC1CCCCC1)Cn1c2ccccc2c2ccccc21 (configuration not stated)
    13	/
COc1ccccc1-n1nnnc1SCC(=O)NC1CCCCC1
    -0.18	-0.15
CCN1C(=O)C(Cc2c[nH]c3ccccc23)NC1=S (configuration not stated)
    -0.84	-0.2
Nc1nc(CSc2nnc(-c3cccc(Br)c3)o2)nc(Nc2ccccc2)n1
    0.23	0.15
C=CCc1c(C)[nH]c(=O)c(C#N)c1C
    14	/
COc1cccc(CN2CCC(NC(=O)C(C)c3ccc(Cl)cc3)C2)c1[N+](=O)[O-] (configuration not stated)
    -0.28	/
COc1cc(/C=N/N(C)C(=S)Nc2cccc(Cl)c2C)cc(OC)c1OC
    -1.2	0.6
O=C(O)c1ccc(N2C(=O)C3C4c5ccccc5C(c5ccccc54)C3C2=O)cc1Cl (configuration not stated)
    -0.095	/
Cc1cc(C)nc(N2CCN(C(=O)c3ccc(S(C)(=O)=O)cc3Cl)CC2)n1
    -0.76	/
O=S(=O)(c1ccc(Cl)cc1)n1cnc2ccccc21
    2.3	-0.5
CCOC(=O)C1=C(c2ccccc2)N(C)C(=O)NC1c1ccccc1F (configuration not stated)
    0.57	-0.2
CCN(CC)CCOc1ccc2c(c1)C(=NNC(=O)NCCCCCCNC(=O)NN=C1c3cc(OCCN(CC)CC)ccc3-c3ccc(OCCN(CC)CC)cc31)c1cc(OCCN(CC)CC)ccc1-2
    -1.1	/
CCc1ccc(NC(=O)Cn2nc(C)n3cccc3c2=O)cc1
    0.15	0.7
O=C1CCCC/C1=N\Nc1ccc(CN2CCCCC2)cc1
    /	0
CC1=C(C(=O)OCCOc2ccccc2)C(c2ccc([N+](=O)[O-])cc2)NC(=O)N1C (configuration not stated)
    -0.45	/
O=C(CON1C(=O)CCC1=O)Nc1cccc2ccccc12
    -0.075	1

This is a random part of the collection; 0.39% or so of the library scored in one or more.
